NPYLR7 agonist – agonists of mosquito NPYLR7 receptor, primary screen, cell-based, Aedes aegypti, calcium fluorescence, mosquito biting behavior. activation, % at 10 µM. HEK293T NPYLR7/Galpha15, GCaMP6s calcium fluorescence. AID 1259423, 2018. 270,000 tested, 0.15% active. Aedes aegypti neuropeptide Y-like receptor 7 (NPYLR7); in the data active = activation above about 40%;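 note: 0% = vehicle and 100% = reference agonist at the receptor; some compounds past the cut are filed as inactive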
NPYLR7 agonist max-min – second read-out of NPYLR7 agonist, no call of its own (marks repeat the call); activation, %; measured here: Max-Min RFU normalised activation; some inactives read as strong as hits;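 span of the calcium signal over five minutes; 0% = vehicle and 100% = native peptide agonist; compound fluorescence can raise it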
Active calls of the source: *. The list is partial, so the mix of outcomes need not match the whole.

SMILES	NPYLR7 agonist	NPYLR7 agonist max-min
COc1ccc(CC(=O)Nc2c(C)nc3ccc(Cl)cn3c2=O)cc1	4.8	0.8
CCCN(CC(O)COc1c(Cl)cccc1Cl)CC1CC1 (stereo not given)	0.2	-0.8
CCN(CCn1cccn1)C(=O)CCc1nnc(Cc2cc(OC)ccc2OC)o1	1.5	-1.1
Cc1cc(C(=O)N(CC2CCN(CCc3ccccc3C)CC2)C2CCCC2)n[nH]1	16.7	5.9
COCCNC(=O)c1ccccc1N1CCC(NC(=O)C2CCCC2)CC1	-4.3	-1.2
Cc1cc(N2CCSCC2)ccc1NC(=O)N1CCCC(C)C1 (stereo not given)	7.3	7.8
Cc1nc2sc(C)c(C)n2c(=O)c1NC(=O)CC1CCCCC1	11.6	6.2
CC(C)Cc1cc(CN2CCN3CCN(C)C(=O)C3C2)[nH]n1 (stereo not given)	-2.0	-0.4
C=CCN(C(=O)c1csc(CC)c1)C(C)C	22.3	10.8
Cc1ccc(C)c(CSC2CCN(C3CCOCC3)C2=O)c1 (stereo not given)	0.1	-0.9
Cc1onc(-c2ccccc2Cl)c1C(=O)Nc1ccc(C(C)(C)C)cc1[N+](=O)[O-]	-6.1	-12.2
Cc1ccc(NC(=O)C(=O)NC2COc3ccccc32)c2cccnc12 (stereo not given)	9.7	7.9
COc1ccc(S(=O)(=O)N(CC(=O)N2CCc3sccc3C2c2ccc(Cl)cc2Cl)C2CCCCC2)cc1 (stereo not given)	21.4	15.3
Cc1ccc(C(=O)NCc2nc(-c3ccccc3NC(=O)CC3CCCC3)oc2C)cc1C	23.5	5.9
O=C(CC1COCCN1)N1CCN(c2ncccn2)CC1 (stereo not given)	-6.1	-4.7

Looked up one by one from the list above:
SMILES	NPYLR7 agonist	NPYLR7 agonist max-min
CC(C)Cc1cc(CN2CCN3CCN(C)C(=O)C3C2)[nH]n1 (stereo not given)	-2.0	-0.4
Cc1onc(-c2ccccc2Cl)c1C(=O)Nc1ccc(C(C)(C)C)cc1[N+](=O)[O-]	-6.1	-12.2

(list continues)
SMILES	NPYLR7 agonist	NPYLR7 agonist max-min
CC(=O)Nc1ccc(CN(C)c2c(C)nc3ccc(C(=O)N4CCC(O)(Cc5ccccc5)CC4)cn23)cc1	-12.3	-15.1
COc1ccccc1-c1cccc(C(=O)N2CCCC2Cn2cccn2)c1 (stereo not given)	3.9	4.0
CN1CC2([N+](=O)[O-])CC=C(C(=O)O)C([N+](=O)[O-])(C1)C2 (stereo not given)	-4.3	-7.2
CCC1=[N+](C)CCn2c(C)ccc21	-0.5	-1.7
COc1ccc(CN2CCC(C(=O)NC(c3ccc(Cl)cc3)c3ccccn3)CC2)cc1 (stereo not given)	5.3	0.5
NC(=O)NC(=O)CCN1CC(c2ccccc2)OC(c2ccc(F)cc2)C1 (stereo not given)	3.4	8.3
CC(c1ccc(Cl)cc1)S(=O)(=O)Cc1cccc(C#N)c1 (stereo not given)	4.5	2.3
COc1ccccc1CN(CCc1c[nH]c2ccccc12)C(=O)CN(C(=O)CC(C)CC(C)(C)C)C(C)C (stereo not given)	3.1	8.6
CCCCCCC(=O)Nc1c(-c2cc(C)cc(C)c2)nc2cc(C)ccn12	-5.8	-0.5
CCc1nc2ccc(C(=O)N3CCN(C(=O)c4ccco4)CC3)cn2c1N(C)C(=O)COc1ccccc1	-3.2	-7.8
O=C(NC(C(=O)N/N=C\c1nc2ccccc2[nH]1)c1n[nH]c(=O)c2ccccc12)c1ccccc1 (stereo not given)	8.3	20.3
COc1cc(C=NNC(=O)Cc2cccs2)cc(OC)c1OC	-0.5	-1.6
Cc1nnc2ccc(-c3ccc(NC(=O)COc4ccccc4)cc3)nn12	-14.6	-8.9
CCc1nc(CN2CCCOc3ccccc32)no1	-1.2	-3.9
COc1ccc(CN(C)C(=S)NC2CC3CCC2C3)cc1OC (stereo not given)	-4.4	-7.3
Cc1ccc(C(=O)N(Cc2ccccn2)Cc2ccc(Br)cc2F)c(=O)[nH]1	4.6	3.2
CCN1CCN(c2nc(-c3ccccc3Cl)nc3ccccc23)CC1	21.8	18.2
O=C(CNc1ccc(S(=O)(=O)N2CCCCCC2)cc1)Nc1ccc(N2CCCC2=O)cc1	12.6	5.1
O=C(CNC(=O)c1cccnc1)N=Nc1c(O)n(CCc2ccccc2)c2ccccc12	-6.9	-13.1
Cc1ccc(-c2csc3nc(CSc4nnnn4C4CCCC4)[nH]c(=O)c23)s1	18.8	16.9
Cc1ccc(CCC(=O)N2CCCC(O)(CO)C2)cc1 (stereo not given)	-0.9	-8.6
CNC(=O)CSc1nc(CC(=O)NCc2ccccc2)cc(=O)[nH]1	-14.1	-16.6
COc1cccc(CSc2nnc(NC(=O)c3ccc(C(F)(F)F)cc3)s2)c1	1.0	10.5
O=C(COc1coc(CN2CCc3ccccc3C2)cc1=O)NCc1ccccc1Cl	-2.7	24.3
CCN(CC)C(=O)C1CCCN(S(=O)(=O)c2ccc(F)c(Cl)c2)C1 (stereo not given)	-5.0	-11.0
COC(=O)c1cc(CNC(=O)C2(c3cccc(F)c3)CCC2)oc1C	1.4	-3.4
COc1ccc(Cl)cc1NC(=O)C(C)Oc1cccc(C#N)c1 (stereo not given)	1.4	-1.6
CC(C)NC(=O)c1cccnc1Oc1ccc(F)cc1Br	-4.9	-6.1
CCc1nnc(NC(=O)CSc2nnc(NC(=O)c3cccc([N+](=O)[O-])c3C)s2)s1	-5.4	-12.1
COc1ccc(C(CC(=O)NCCc2ccc(Cl)cc2Cl)c2c[nH]c3ccccc23)cc1 (stereo not given)	1.0	8.2
O=C(Nc1ccc(-n2cnnn2)cc1)c1cc2ccccc2o1	-7.6	-10.9
COc1ccc(NC(=O)N[C@H]2CO[C@H]3[C@@H]2OC[C@@H]3n2cc(CN(C)Cc3ccccc3)nn2)cc1	-7.6	-17.4
CN1C(C(=O)NCC2CCCO2)=CC(c2ccco2)=NS1(=O)=O (stereo not given)	-1.4	-3.9
CCc1cccc2c(C(CC(=O)N3CCN(c4cccc(C(F)(F)F)c4)CC3)c3cccc(C(F)(F)F)c3)c[nH]c12 (stereo not given)	-1.1	6.5
COc1ccc(N2CCN(c3ncnc4c3cnn4CCNC(=O)c3sc(C)nc3C)CC2)cc1	0.1	-2.2
N#Cc1cccc(NC(=O)C2C3CC4CC(C3)CC2C4)c1 (stereo not given)	2.0	1.6
Cc1ccc(C(=O)CCC(=O)N2CCC(NC(=O)c3ccncc3)CC2)cc1	9.7	6.4
CCC(C)(C)c1ccc(OCCCCNC(=O)c2cc(-c3cccs3)nn2-c2ccc(F)cc2)c(C(C)(C)CC)c1	21.1	26.9
Cc1ccc(CN2CCN(CC3CCCCC3)C(CCO)C2)s1 (stereo not given)	9.4	8.5
Cc1ccc2nc(NC(=O)CCc3c(C)nc4ncnn4c3C)sc2c1	13.9	6.7
CN(C(=O)c1ccco1)C(Cc1ccccc1Cl)C1CCN(Cc2cccc3ncccc23)CC1 (stereo not given)	18.0	4.9
Cc1ccc(-c2nnc(Nc3cccc(Cl)c3)[nH]c2=O)cc1	17.4	12.6
O=C1NC(=Nc2ccccc2)S/C1=C\c1cccc([N+](=O)[O-])c1	-0.8	-8.1
CCC(=O)Nc1cccc(C(=O)N2CCCC(c3nc(C(C)C)no3)C2)c1 (stereo not given)	-2.3	3.0
Cc1nc(Cn2nnnc2C2CCCC2)no1	13.1	9.7
CC(=O)NCc1ccc(-c2nn3cnnc3s2)cc1	6.5	0.6
COc1ccc(NS(=O)(=O)c2ccc(Cl)c(C(=O)Nc3ccccc3)c2)cc1	6.0	6.7
Cc1cc(C)n(-c2cc(NCCNC(=O)c3ccco3)nc(C)n2)n1	-11.2	-13.4
CN(C)c1ccc(C(=O)N2CCN(C(c3ccccc3)c3ccc(Br)cc3)CC2)cc1 (stereo not given)	10.1	16.6
O=C(CN1CCOc2ccccc2C1)NCCc1n[nH]c2c1CCCC2	-5.9	-9.6
O=C(CCCNC(=O)c1ccsc1)NCc1ccc(N2CCCC2=O)cc1	11.8	5.7
CC(c1ccccc1)N(Cc1cc(NC(=O)C2CCC2)ccc1N(C)C)C(=O)c1cccs1 (stereo not given)	-2.7	9.2
O=C1CN(c2ncnc3c2CCNC3)CCN1Cc1ccc2c(c1)OCO2	14.9	15.4
C/C=C/c1cc(C(=O)N(C)Cc2ccc3c(c2)OCO3)cc(OC)c1OC	1.8	-1.9
CCOC(=O)c1sc2nc(CS)[nH]c(=O)c2c1C	8.5	6.7
O=c1cc(C23CC4CC(CC(C4)C2)C3)[nH][nH]1	0.9	-0.1
COC(=O)c1ccccc1NC(=O)c1nn2c(C(F)(F)F)cc(-c3ccccc3)nc2c1Cl	2.5	-0.7
Cc1cc(C(NC(C)(C)C)C(=O)O)cc(C)c1O (stereo not given)	-7.0	-8.3
Cc1ccc(C(C)C)cc1OCC(=O)Nc1ccncc1	-7.6	-10.3
O=C(Nc1ccc(F)c(-c2nnc3n2CCCCC3)c1)C1CCOCC1	0.2	-1.2
(next part)
SMILES	NPYLR7 agonist	NPYLR7 agonist max-min
Cc1nc2c(C)cccn2c(=O)c1NC(=O)c1ccc(Cl)cc1	3.0	0.3
CN(C)c1ncccc1NC(=O)c1ccc(C2SCCS2)cc1	-20.4	-22.9
Cc1[nH]nc(C(=O)N(C)CC2CC2)c1Br	13.2	9.3
Cc1cccc(NC(=O)N2CC(C)(C)SC23C(=O)N(Cc2ccc(F)cc2)c2ccc(C)cc23)c1 (stereo not given)	-1.9	2.4
CSc1ccc(-c2nccc3n[nH]c(C4CC4)c23)cc1	17.9	14.4
CC(c1ccc(Cl)cc1)N(C)C(=O)/C=C/c1ccccn1 (stereo not given)	1.7	1.3
COc1ccc(NC(=O)Cn2c(=O)n(-c3ccc(C)c(C)c3)c(=O)c3ccccc32)cc1OC	1.4	11.0
Cc1nc2sccn2c(=O)c1S(=O)(=O)NCCN1CCOCC1	-0.2	-2.3
Cc1nc(C(C)C)sc1C(=O)NCCc1ccccc1F	8.6	3.6
Cc1nn2cc(-n3cc([N+](=O)[O-])cn3)cnc2c1C(N)=O	-10.6	-13.0
Cc1cc(OCC2c3ccsc3CCN2C(=O)CN(C(=O)Cc2ccccc2)C2CC2)ccc1Cl (stereo not given)	13.9	11.4
CN1C(=O)c2cccc(NC(=O)C3CCCCC3)c2C1=O	6.3	5.5
COCc1ccc(C(=O)N(C)CC2CCN(CCc3ccc(OC)cc3)CC2)o1	17.6	7.7
N=C1C(c2ccccc2)C(=O)CN1NC(=O)c1ccc(Cl)cc1 (stereo not given)	-5.0	-6.1
COCc1c(Br)c(C)nc(OCC(=O)N/N=C\c2ccc(OC)cc2OC)c1C#N	-7.9	-14.1
CCOC(=O)c1nn(-c2ccccc2)c(=O)c2c(NC(=O)c3ccccc3[N+](=O)[O-])scc12	4.0	-0.2
O=c1cc(CN2CCCC3(CCCc4ccccc43)C2)nc(C2CC2)[nH]1 (stereo not given)	1.4	3.2
CN(c1ccccc1)N1CC(C(=O)NCCc2cccc(Cl)c2)CC1=O (stereo not given)	6.0	0.2

Molecules from the list above with a Cl atom (20):
SMILES	NPYLR7 agonist	NPYLR7 agonist max-min
COc1ccc(CC(=O)Nc2c(C)nc3ccc(Cl)cn3c2=O)cc1	4.8	0.8
CCCN(CC(O)COc1c(Cl)cccc1Cl)CC1CC1 (stereo not given)	0.2	-0.8
Cc1onc(-c2ccccc2Cl)c1C(=O)Nc1ccc(C(C)(C)C)cc1[N+](=O)[O-]	-6.1	-12.2
COc1ccc(S(=O)(=O)N(CC(=O)N2CCc3sccc3C2c2ccc(Cl)cc2Cl)C2CCCCC2)cc1 (stereo not given)	21.4	15.3
COc1ccc(CN2CCC(C(=O)NC(c3ccc(Cl)cc3)c3ccccn3)CC2)cc1 (stereo not given)	5.3	0.5
CC(c1ccc(Cl)cc1)S(=O)(=O)Cc1cccc(C#N)c1 (stereo not given)	4.5	2.3
CCN1CCN(c2nc(-c3ccccc3Cl)nc3ccccc23)CC1	21.8	18.2
O=C(COc1coc(CN2CCc3ccccc3C2)cc1=O)NCc1ccccc1Cl	-2.7	24.3
CCN(CC)C(=O)C1CCCN(S(=O)(=O)c2ccc(F)c(Cl)c2)C1 (stereo not given)	-5.0	-11.0
COc1ccc(Cl)cc1NC(=O)C(C)Oc1cccc(C#N)c1 (stereo not given)	1.4	-1.6
COc1ccc(C(CC(=O)NCCc2ccc(Cl)cc2Cl)c2c[nH]c3ccccc23)cc1 (stereo not given)	1.0	8.2
CN(C(=O)c1ccco1)C(Cc1ccccc1Cl)C1CCN(Cc2cccc3ncccc23)CC1 (stereo not given)	18.0	4.9
Cc1ccc(-c2nnc(Nc3cccc(Cl)c3)[nH]c2=O)cc1	17.4	12.6
COc1ccc(NS(=O)(=O)c2ccc(Cl)c(C(=O)Nc3ccccc3)c2)cc1	6.0	6.7
COC(=O)c1ccccc1NC(=O)c1nn2c(C(F)(F)F)cc(-c3ccccc3)nc2c1Cl	2.5	-0.7
Cc1nc2c(C)cccn2c(=O)c1NC(=O)c1ccc(Cl)cc1	3.0	0.3
CC(c1ccc(Cl)cc1)N(C)C(=O)/C=C/c1ccccn1 (stereo not given)	1.7	1.3
Cc1cc(OCC2c3ccsc3CCN2C(=O)CN(C(=O)Cc2ccccc2)C2CC2)ccc1Cl (stereo not given)	13.9	11.4
N=C1C(c2ccccc2)C(=O)CN1NC(=O)c1ccc(Cl)cc1 (stereo not given)	-5.0	-6.1
CN(c1ccccc1)N1CC(C(=O)NCCc2cccc(Cl)c2)CC1=O (stereo not given)	6.0	0.2
